MT1-MMP act inh: blocks activation of human MT1-MMP. HT1080 RFP-PRO-GFP cells, GFP/RFP ratio fluorescence, overnight; percent of plate control window, DMSO zero. GFP/RFP ratio change, % at 20 µM. actives 0.061% (n = 360,000). AID 651647;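 active = GFP/RFP ratio change of at least 30% with cell ATP level not reduced by more than half and red fluorescence within 50% of control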; also: strong numbers were not always called active
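Assay system: HT1080 RFP-PRO-GFP cells | Dosing: 20 µM single dose, 1% DMSO | Incubation: Cells overnight before dosing, compound overnight, 37 °C, 5% CO2 | Evaluation: GFP/RFP fluorescence ratio | Control set: DMSO-only wells and HT1080 RFP-L50D-GFP cell wells as references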
CSC inhib: cancer stem cell inhibition; actives 1.1% (n = 300,000); inhibition, % at 7.5 µM; cancer stem cell-like cells viability, luminescence;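 active = mean at 75% or more and at least half the replicates too; inconclusive = mean and replicates disagree; tested in HMLE shEcad cells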;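 also: 0% = median of negative and 100% = median of positive control wells; the first replicate is given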
PABP FP inh: blocks human PABP binding to poly(A) RNA; P11940; fluorescence polarization; inhibition, % at 35 µM; actives 1% (n = 290,000); AID 2014;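 active = 50% or more with normal probe brightness, or confirmed in later tests; inconclusive = above 50% with abnormal brightness, or retests that disagree; inactive = below 50% or failed in later tests; about a fifth of its hits are not listed in these tables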;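 also: calls also rest on retests at 20 µM and on dose response follow-up; controls were probe without protein and protein plus probe with vehicle; some compounds called inactive have numbers as strong as hits; many hits fall short of the cut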
Rce1 inh: yeast Ras-converting enzyme inhibition; yeast membranes, quenched prenylated peptide cleavage fluorescence; actives 0.27% (n = 290,000); AID 2563; calls only; Q03530;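 active = fall in fluorescence gain of 50% or more versus controls, with final raw signal at or below 3038400; inconclusive = same 50% fall but final raw signal above 3038400; inactive = fall in fluorescence gain under 50%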;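 also: plate controls were neutral control wells for no effect and wells lacking membranes for full effect; tested at 10 µM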
Target sequence (Q03530 whole entry, looked up): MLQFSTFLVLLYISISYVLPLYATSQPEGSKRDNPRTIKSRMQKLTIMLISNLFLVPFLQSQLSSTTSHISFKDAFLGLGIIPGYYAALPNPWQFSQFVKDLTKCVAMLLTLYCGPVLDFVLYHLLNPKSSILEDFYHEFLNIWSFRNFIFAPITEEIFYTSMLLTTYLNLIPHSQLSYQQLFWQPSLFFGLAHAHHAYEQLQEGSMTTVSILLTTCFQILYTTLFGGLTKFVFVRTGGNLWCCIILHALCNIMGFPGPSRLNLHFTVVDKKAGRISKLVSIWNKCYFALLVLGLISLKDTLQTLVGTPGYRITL
eIF4H FP inh: inhibitors of RNA binding by human eIF4H; inhibition, % at 35 µM; eIF4H fluorescence polarization binding assay; actives 0.94% (n = 290,000);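 active = 50% or more with normal probe brightness, or confirmed in later tests; inconclusive = above 50% with abnormal brightness, or retests that disagree; inactive = below 50% or failed in later tests; about a fifth of its hits are not listed in these tables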;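 also: calls also rest on retests at 20 µM and on dose response follow-up; 0% = protein and probe with vehicle and 100% = probe without protein; strong numbers were not always called active; many hits fall short of the cut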
UUG fidelity: modulators of start codon recognition fidelity in yeast. S. cerevisiae UUG-firefly luciferase reporter, luminescence/redox ratio. activity score, % at 18.7 µM. actives 0.13% (n = 350,000);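 active = replicate mean at a twofold rise or more, about +100% in these data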;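 also: firefly luciferase made from a UUG start codon reports start codon fidelity; reporter light over untreated wells divided by growth signal over untreated wells; some hits fall short of that in this replicate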
Env fusion inh: blocks HIV Env-driven cell-cell fusion; AID 651610; HeLa-JRFL Env/CEM21 cell fusion, luciferase; actives 1.1% (n = 360,000); inhibition, % at 12.3 µM;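 active = mean replicate inhibition score of at least 50 and every replicate individually at or above 50; inconclusive = only one of the two criteria met; inactive = mean below 50 and not all replicates reaching 50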;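 also: 0% = plate neutral controls and 100% = maraviroc near 300 nM; one replicate is shown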
eIF4H FP inh retest: further read-out of eIF4H FP inh, marked with its call; inhibition, %; compound at 20 µM; confirmation average;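 mean of two retest wells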
PABP FP inh retest: also measured in PABP FP inh; calls as there; inhibition, %; compound at 20 µM; confirmation repeats;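 mean of two retest wells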
MT1-MMP act inh RFP: further read-out of MT1-MMP act inh, marked with its call; RFP signal change, %; measured here: RFP expression control read;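 0 = vehicle wells; hits needed this value within 50% of zero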
Starred values were filed as active, the others as inactive; i = inactive; ? = inconclusive; nt = no result given; & = joins results of further samples; [ ] = remark or other dose.

SMILES	MT1-MMP act inh	MT1-MMP act inh RFP	CSC inhib	PABP FP inh	Rce1 inh	eIF4H FP inh	UUG fidelity	Env fusion inh	others
CC(=O)c1ccc(OCCCC(=O)NNC(=O)c2ccccn2)cc1	1	0	nt	nt	nt	nt	-13	8
O=C(O)/C=C/C(=O)N1CCN(S(=O)(=O)c2cccc(C(F)(F)F)c2)CC1	2	5	-6	-4	i	-4	nt	6
CNC(=O)N(C1=NCC(C)(C)S1)c1ccc(F)c(Cl)c1	1	-6	45	6	i	-16	-20	-7
CC(C)CC(=O)NC1(C(F)(F)F)C(=O)Nc2c1c(=O)[nH]c(=O)n2Cc1ccco1 (stereo not drawn)	-1	3	-1	14	i	3	16	-38
CC[C@@H]1CCCCc2ccccc2[C@@H](C(=O)C[C@H](O)CC(C)=O)OC1=O	-7	3	nt	nt	nt	nt	2	3
COc1cccc(Oc2ccc(N)cn2)c1	3	3	0	?	i	?	-5	-21
CCOc1ccccc1NC(=O)C(C)N1C(=O)c2ccccc2S1(=O)=O (stereo not drawn)	4	8	-5	nt	i	nt	nt	nt
C=CCN1C(=O)C(Cc2ccc(OC)cc2)S/C1=N/N=C/c1ccco1 (stereo not drawn)	5	6	nt	1	i	-4	3	nt
Cc1cc2oc(=O)cc(-c3ccccc3)c2c(C)c1-c1ccc(O)cc1	-8	-4	nt	nt	nt	nt	-15	-61
O=C(CNC(=O)C12CC3CC(CC(C3)C1)C2)N1CCN(S(=O)(=O)/C=C/c2ccccc2)CC1	2	-16	-9	26	i	1	-1	47
FC(F)(F)c1cccnc1N1CCN(c2ncnc3nc[nH]c23)CC1	0	-4	-14	-3	i	7	-12	-9
COC(=O)Cc1csc(Nc2c(C)n(C)n(-c3ccccc3)c2=O)n1	-2	1	-4	8	i	-4	5	-10
CCCN1C(=O)/C(=C/C=C2\N(CC)c3ccccc3C2(C)C)SC1=S	-30	94	46	?	nt	?	-11	5
COc1c(C)cc(C(=O)C2CCCN(C(=O)c3cc(C)nc(C)n3)C2)cc1C (stereo not drawn)	-2	0	-4	-2	i	-8	nt	8
Cc1cc(S(=O)(=O)N2CCN(c3ccc(F)cc3)CC2)c(C)s1	-1	-8	38	2	i	1	-11	-26
CC(=O)NC1=C(C#N)C(c2ccccc2)c2c(ccc3ccccc23)O1 (stereo not drawn)	-11	-13	78*	-9	i	-7	4	-254
O=C(NCCc1ccccc1)c1ccc2c(c1)S(=O)(=O)c1cc(Cl)ccc1C2=O	1	3	10	nt	nt	nt	2	-18
CCOC(=O)COn1c(=O)c(-c2ccc(OC)cc2)[n+]([O-])c2ccccc21	3	1	-11	-6	i	-8	-3	-30
O=C1CN(C(=O)COc2ccc(Br)cc2F)c2ccccc2N1	4	2	-6	-2	i	-2	2	0
CCCN(CCC)C(=O)Nc1cc(Cl)ccc1OC	-5	-4	-13	-6	i	0	-7	-5
Cc1cc(Cl)ccc1NC(=O)/C=N/O	-1	-2	-5	-8	i	0	nt	-7
O=C(CN1C(=O)NC2(CCc3ccccc32)C1=O)c1ccc(Br)s1 (stereo not drawn)	-2	2	6	nt	nt	nt	-9	nt
O=C(Nc1ccc2[nH]c(=O)[nH]c2c1)c1ccc(Br)o1	0	3	-12	4	i	0	-7	21
Cn1c(N)c(C(=O)COC(=O)CCc2c[nH]c3ccccc23)c(=O)n(C)c1=O	3	5	-1	5	i	-6	-10	nt
COCCNc1nc(C(C)(C)C)nc2c1nnn2Cc1ccccc1Cl	5	-4	nt	-14	i	5	-31	6
O=C1NC(Nc2ccccn2)(C(F)(F)F)C(=O)N1c1ccc(F)cc1 (stereo not drawn)	0	3	-18	3	i	-1	-6	nt
CC(=O)Nc1ccc(NC(=O)CNC(=O)COc2ccccc2)cc1	-5	0	-8	1	i	-3	nt	7
COC(=O)c1ccc(NC(=O)C2CCCN2S(=O)(=O)c2ccc(C)cc2)cc1 (stereo not drawn)	6	-1	18	5	i	-6	-5	9
O=C(Nc1ccc(Cl)cn1)c1cccc(S(=O)(=O)N2CCCCC2)c1	3	-3	nt	-2	i	-11	0	14
O=C(c1cccnc1)c1ncc(C(F)(F)F)cc1Cl	5	5	-13	-7	i	-2	-6	-3
O=C(N/N=C/c1cccc(F)c1)c1cc(-c2ccco2)nc2ccccc12	-12	-13	21	54*	i	84*	-12	-80	eIF4H FP inh retest=75*;PABP FP inh retest=93*
C=CCc1cccc2cc(C(=O)Nc3ccc(CC(=O)O)cc3)c(=O)oc12	3	-6	-6	-10	i	69	1	20	eIF4H FP inh retest=24;PABP FP inh retest=32
CC(c1cccs1)N(C)Cc1nc(CCc2ccccc2)no1 (stereo not drawn)	-4	-6	1	1	i	-10	nt	5
Cc1cc(=O)oc(C)c1C(=O)Nc1cccc(F)c1	0	2	11	-3	i	-4	-13	-3
O=C(NCc1ccccc1)/C(=N\O)c1ccccc1	-1	2	nt	10	nt	-5	-13	-18
COc1ccc(/C(O)=C2\C(=O)C(=O)N(CC3CCCO3)C2c2cc(OC)ccc2OC)cc1 (stereo not drawn)	-2	3	17	4	nt	5	-15	nt
Cc1cc(NC(=O)c2cc3n(n2)C(C(F)(F)F)CC(c2ccc(Cl)c(Cl)c2)N3)no1 (stereo not drawn)	0	2	16	-6	i	0	-17	-108
CC(=O)c1cccc(Nc2nc(-c3ccccc3)cs2)c1	-2	-6	10	1	i	4	-23	-59
CCN(CC)CCN1C(=O)C(=O)/C(=C(/O)c2c(C)[nH]c(C(=O)OC)c2C)C1c1cccs1 (stereo not drawn)	-4	1	-6	-1	i	7	-12	-2
C=CCN(c1ccccc1)S(=O)(=O)c1cccc(C(=O)OCC(=O)NCCOC)c1	1	2	12	8	i	-4	nt	-7
C=CCN(c1ccc(C(=O)NCCc2ccccc2)cc1)S(C)(=O)=O	9	1	nt	1	i	0	-12	-42
CCCNC(=O)C(Cc1cccc(OC)c1)NC(=O)c1ccc(C#N)cc1 (stereo not drawn)	1	5	1	nt	nt	nt	-1	-13
CCc1nc2ccc(C(=O)N(C)CC(=O)Nc3ccc(F)c(F)c3F)cc2nc1CC	-2	-1	nt	nt	nt	nt	-13	1
CCOc1ccccc1N1CCN(C(=O)c2c(-c3c(F)cccc3Cl)noc2C)CC1	-1	-6	-19	0	i	-10	8	10
O=C(COc1ccc2c(-c3ccccc3)cc(=O)oc2c1)N[C@@H](Cc1c[nH]c2ccc(O)cc12)C(=O)O	21	18	-7	23	i	34	2	nt
CC(C)CNC(=S)NC1CC2CCCC(C1)N2Cc1cccs1 (stereo not drawn)	11	5	-7	-3	i	7	-30	nt
O=C(NCCCN1CCCC1=O)c1cc(-c2cccnc2)nc2ccc(Cl)cc12	-3	0	-12	-1	i	0	nt	-1
CC(C)(C)N1C(=O)c2ccc(C(=O)Nc3nccs3)cc2C1=O	2	-2	-6	-15	i	-1	-15	nt
COc1ccc(OC)c(NC(=O)COC(=O)COc2c(Cl)cc(Cl)c3ccc(C)nc23)c1	0	2	-4	nt	nt	nt	-12	-3
O=C1NC(c2cccc(Cl)c2)Oc2ccccc21 (stereo not drawn)	2	4	6	1	i	-2	-16	-5

(list continues)
SMILES	MT1-MMP act inh	MT1-MMP act inh RFP	CSC inhib	PABP FP inh	Rce1 inh	eIF4H FP inh	UUG fidelity	Env fusion inh	others
COCC(=O)Nc1cc(C)c2c(=O)oc3ccccc3c2n1	3	6	-2	4	i	11	-6	-16
Cc1ccc(NC(=O)CN(C)C(=O)c2ccc3[nH]c4c(c3c2)CC(C)CC4)cc1 (stereo not drawn)	1	2	4	nt	nt	nt	-7	0
COc1ccccc1Cn1c(C)c(C(=O)NCc2ccc3c(c2)OCCO3)sc1=O	5	-1	nt	nt	nt	nt	-12	-106
CCn1c(C)cc2c(c1=O)C(c1ccncc1)C(C#N)=C(N)O2 (stereo not drawn)	4	2	-9	2	i	6	-13	-28
Cc1cccc(NC(=O)COC(=O)c2ccccc2-c2nc3ccccc3s2)c1C	-5	-3	-6	-2	i	-20	nt	20
O=C(c1ccc(S(=O)(=O)N2CCCC2)cc1)N(c1ccccc1)C1C=CS(=O)(=O)C1 (stereo not drawn)	-1	2	3	2	i	-10	-13	6
CC(=O)N1CCC(=NNS(=O)(=O)c2cccc([N+](=O)[O-])c2)CC1	8	3	nt	26	nt	-6	-15	27
Clc1ccc2ccc3cccnc3c2n1	-2	-1	4	-3	i	-4	-18	-6
COc1ccc(/C=C/C(=O)NC(=S)Nc2ccc(S(=O)(=O)Nc3ccc(OC)nn3)cc2)cc1	3	-1	-3	-2	i	-3	-19	24
O=c1c(Cc2ccc(Cl)cc2Cl)c(O)ccn1Cc1ccc(Cl)cc1	4	0	27	20	i	-7	-11	nt

Sorted by length of the SMILES (ascending): 11 of the compounds above.
SMILES	MT1-MMP act inh	MT1-MMP act inh RFP	CSC inhib	PABP FP inh	Rce1 inh	eIF4H FP inh	UUG fidelity	Env fusion inh	others
Cc1cc(=O)oc(C)c1C(=O)Nc1cccc(F)c1	0	2	11	-3	i	-4	-13	-3
O=C(Nc1ccc2[nH]c(=O)[nH]c2c1)c1ccc(Br)o1	0	3	-12	4	i	0	-7	21
O=c1c(Cc2ccc(Cl)cc2Cl)c(O)ccn1Cc1ccc(Cl)cc1	4	0	27	20	i	-7	-11	nt
O=C(CN1C(=O)NC2(CCc3ccccc32)C1=O)c1ccc(Br)s1 (stereo not drawn)	-2	2	6	nt	nt	nt	-9	nt
C=CCN1C(=O)C(Cc2ccc(OC)cc2)S/C1=N/N=C/c1ccco1 (stereo not drawn)	5	6	nt	1	i	-4	3	nt
O=C(N/N=C/c1cccc(F)c1)c1cc(-c2ccco2)nc2ccccc12	-12	-13	21	54*	i	84*	-12	-80	eIF4H FP inh retest=75*;PABP FP inh retest=93*
O=C(NCCCN1CCCC1=O)c1cc(-c2cccnc2)nc2ccc(Cl)cc12	-3	0	-12	-1	i	0	nt	-1
COC(=O)c1ccc(NC(=O)C2CCCN2S(=O)(=O)c2ccc(C)cc2)cc1 (stereo not drawn)	6	-1	18	5	i	-6	-5	9
CCc1nc2ccc(C(=O)N(C)CC(=O)Nc3ccc(F)c(F)c3F)cc2nc1CC	-2	-1	nt	nt	nt	nt	-13	1
Cc1ccc(NC(=O)CN(C)C(=O)c2ccc3[nH]c4c(c3c2)CC(C)CC4)cc1 (stereo not drawn)	1	2	4	nt	nt	nt	-7	0
CC(C)CC(=O)NC1(C(F)(F)F)C(=O)Nc2c1c(=O)[nH]c(=O)n2Cc1ccco1 (stereo not drawn)	-1	3	-1	14	i	3	16	-38

Continued:
SMILES	MT1-MMP act inh	MT1-MMP act inh RFP	CSC inhib	PABP FP inh	Rce1 inh	eIF4H FP inh	UUG fidelity	Env fusion inh	others
COc1ccc([C@H]2/C=C\CN(C(=O)c3ccccc3)[C@@H](C)C(=O)N2Cc2ccc(F)cc2)cc1	2	-7	-8	nt	i	nt	-8	0
O=c1c2ccc(F)cc2sn1-c1ccccc1	16	-23	nt	nt	nt	nt	-25	35
COc1ccc([N+](=O)[O-])cc1NS(=O)(=O)c1cccc(C(=O)OC2CCOC2=O)c1 (stereo not drawn)	6	-1	15	nt	nt	nt	-11	8
CCn1cc(Br)c(C(=O)Nc2ccc(Cl)c(Cl)c2)n1	-2	-2	27	-4	i	2	0	-105
O=C(Nc1ccccc1)C1=C[C@@H](c2ccc(C(F)(F)F)cc2)C[C@@H](OCc2ccc(CO)cc2)O1	-2	-5	79*	-7	i	-9	-11&-10	6[16.7 µM]

High-throughput results (PubChem BioAssay)

An excerpt (hit frequency here may not be typical).
